Screening results (PubChem BioAssay)
Mtb bLac sens: beta-lactam sensitization of Mtb H37Rv, H37Rv | M. tuberculosis H37Rv growth with meropenem, percent inhibition; hits of this screen are not shown here | inhibition, % at 25 µM | 330,000 compounds, 0.27% hits;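 active means about 74% or more and at least 40 points above the plate without the antibiotic, then above 30% in a dose series; inconclusive means first-round hits that could not be retested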;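 further: growth measured after seven days incubation then overnight dye step; 0% = bacteria only wells and 100% = bacteria with antibiotic; twin plates without the antibiotic show which effects depend on it; some results filed as inactive read as strong as hits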
Mtb H37Rv: M. tuberculosis H37Rv growth inhibitors, H37Rv strain (AID 1626) | 220,000 compounds, 0.95% hits | M. tuberculosis H37Rv growth inhibition; higher % means a stronger effect | inhibition, % at 10 µM, or IC50 in µM where a hit was titrated;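 active means confirmed in a dose series; inconclusive means inhibition above 80% but not taken into the dose series; inactive means below 80% or under 30% at every dose of the series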;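 further: bacteria incubated seven days before Alamar blue readout; 0% = bacteria only wells and 100% = bacteria with antibiotic wells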
YopH PTP inh: YopH tyrosine phosphatase inhibitors, primary screen, biochemical, fluorescence Ex485/Em525; 140,000 compounds, 0.16% hits; inhibition, %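 (about 10 µM by stock and volumes)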; YopH tyrosine phosphatase [Yersinia enterocolitica]; AID 898, 2007;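 active means inhibition of 50% or more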;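 further: controls were vehicle for no effect and minimum signal wells for full effect; inactives centre near -20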
RecA splice inh: Mtb RecA intein splicing inhibitors, primary screen, biochemical, fluorescence, HTS | AID 2221, 2009 | cell-free RecA intein splicing | inhibition, %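 (about 9 µM by stock and volumes)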 | 290,000 compounds, 0.75% hits | Protein RecA (Mycobacterium tuberculosis (strain ATCC 25618 / H37Rv)), P9WHJ3; in the data active means inhibition above about 30%; inconclusive means no clear call, values can overlap the other calls;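 further: 0% = vehicle wells and 100% = reference inhibitor control wells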
Target sequence (P9WHJ3 whole entry, looked up, canonical isoform): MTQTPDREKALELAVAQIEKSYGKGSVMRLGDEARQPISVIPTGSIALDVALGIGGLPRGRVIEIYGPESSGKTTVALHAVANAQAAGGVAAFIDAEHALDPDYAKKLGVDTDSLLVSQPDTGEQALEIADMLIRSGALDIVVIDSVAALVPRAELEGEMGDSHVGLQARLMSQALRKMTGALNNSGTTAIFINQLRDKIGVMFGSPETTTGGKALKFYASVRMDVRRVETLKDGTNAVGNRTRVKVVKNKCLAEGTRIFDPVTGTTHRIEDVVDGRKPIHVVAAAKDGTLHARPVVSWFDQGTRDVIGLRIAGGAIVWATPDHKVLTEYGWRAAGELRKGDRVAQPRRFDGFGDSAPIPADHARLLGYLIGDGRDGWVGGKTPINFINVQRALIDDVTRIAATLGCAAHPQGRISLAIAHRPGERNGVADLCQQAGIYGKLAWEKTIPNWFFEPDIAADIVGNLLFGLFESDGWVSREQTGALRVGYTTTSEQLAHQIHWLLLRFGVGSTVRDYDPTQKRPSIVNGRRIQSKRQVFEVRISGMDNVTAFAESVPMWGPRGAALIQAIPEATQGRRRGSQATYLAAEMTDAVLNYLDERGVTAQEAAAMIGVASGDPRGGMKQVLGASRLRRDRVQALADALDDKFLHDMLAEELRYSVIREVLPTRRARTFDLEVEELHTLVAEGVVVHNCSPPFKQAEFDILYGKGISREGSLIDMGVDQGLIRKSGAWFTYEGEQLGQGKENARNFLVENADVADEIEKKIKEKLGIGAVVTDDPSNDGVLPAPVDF
Arbovirus anti: antivirals against arbovirus infection, primary screen, cell-based, full library, 10K replicate subset. AID 1251, 2008. 200,000 compounds, 0.37% hits. arbovirus infection cell-based antiviral screen. inhibition, % at 10 µM;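 active means inhibition from about 30%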;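 further: bluetongue infection of BSR cells; cell survival read as ATP light after 72 h; 0% = infected wells without compound and 100% = uninfected wells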
Arbovirus anti repeat: second read-out of Arbovirus anti, no call of its own (marks repeat the call); inhibition, %; measured here: 10K subset replicate screen; many hits read low in the repeat;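 first of two repeat runs on a subset; 0% = infected and 100% = uninfected wells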
Starred values were filed as active, the others as inactive; ? = inconclusive; . = not tested or not shown; & = joins results of further samples.

Start of the listing, in advance:
SMILES	Mtb bLac sens	Mtb H37Rv	YopH PTP inh	RecA splice inh	Arbovirus anti	others
COC(=O)c1scc(C)c1NC(=O)/C=C/C(=O)O	0.6	-3.6%	.	-0.9	.
CCOC(=O)C1CCN(C(=O)COC(=O)CSc2ccc(C(N)=O)cc2[N+](=O)[O-])CC1	-5.4	.	.	0.0	.
Cc1ccc2c(Cl)cc(Cl)c(OCC(=O)Nc3ccc(C)c(S(=O)(=O)N(C)C)c3)c2n1	1.8	45.8%	-2.9	0.7	-11.4

The whole of this part, from the start:
SMILES	Mtb bLac sens	Mtb H37Rv	YopH PTP inh	RecA splice inh	Arbovirus anti	others
COC(=O)c1scc(C)c1NC(=O)/C=C/C(=O)O	0.6	-3.6%	.	-0.9	.
CCOC(=O)C1CCN(C(=O)COC(=O)CSc2ccc(C(N)=O)cc2[N+](=O)[O-])CC1	-5.4	.	.	0.0	.
Cc1ccc2c(Cl)cc(Cl)c(OCC(=O)Nc3ccc(C)c(S(=O)(=O)N(C)C)c3)c2n1	1.8	45.8%	-2.9	0.7	-11.4
CCOc1ccc(NC(=O)c2ccco2)c([N+](=O)[O-])c1	-4.3	11.2%	-15.8	1.1	-19.4
COCCCNC(NC(=O)c1ccc(OC)cc1)C(Cl)(Cl)Cl (stereo not drawn)	2.3	-2.8%	.	0.2	2.2
Cc1ccc(-c2nc(NCC3CCCO3)sc2C)cc1 (stereo not drawn)	-0.9	-2.4%	.	0.8	12.5
COCCNc1nnc(SCC(=O)Nc2nnc(-c3ccccc3)o2)s1	3.1	.	.	-1.6	.
O=C1/C(=C/c2cccs2)N=C(c2cccs2)N1Nc1ccccc1	0.9	7.5%	-29.9	0.9	-30.1
O=C(NCc1ccccc1)c1cc(=O)[nH]c2ccccc12	-1.3	-12.5%	7.4	4.0	-1.2
NC(=O)c1ccc(NC(=O)CCc2nc3sc4c(c3c(=O)[nH]2)CCCC4)cc1	1.0	.	.	-3.8	.

Next part; the last two above are carried over.
SMILES	Mtb bLac sens	Mtb H37Rv	YopH PTP inh	RecA splice inh	Arbovirus anti	others
O=C(NCc1ccccc1)c1cc(=O)[nH]c2ccccc12	-1.3	-12.5%	7.4	4.0	-1.2
NC(=O)c1ccc(NC(=O)CCc2nc3sc4c(c3c(=O)[nH]2)CCCC4)cc1	1.0	.	.	-3.8	.
Cc1c(NC(=O)CC2CC(C)OC2=O)c(=O)n(-c2ccccc2)n1C (stereo not drawn)	-4.3	2.8%	-35.7	-10.2	.
CCC(O)CNC(=O)CCc1nnc(C2(c3ccc(Cl)cc3)CCC2)o1 (stereo not drawn)	-5.3	-0.6%	.	1.9	0.3
CCCn1c(=O)c(F)cn(Cc2ccc(OC)c([N+](=O)[O-])c2)c1=O	6.8	-11.6%	-43.2	-3.4	8.3
CN(C(=O)COC(=O)c1nc(-c2ccccc2)n(-c2ccccc2)n1)C1CCS(=O)(=O)C1 (stereo not drawn)	?	3.2%	-23.5	-4.2	7.3
Cc1cc(C(=O)NCc2ccccc2F)c2ccccc2n1	-3.7	.	.	-2.2	.
Cc1ccc(NC(=O)C(=O)c2c(-c3ccccc3)cc3ccccn23)cc1S(=O)(=O)N1CCOCC1	-2.7	-1.7%	-30.3	10.3	5.8
CC(NC(=O)CCC(=O)c1ccc(F)cc1)C1CC2CCC1C2 (stereo not drawn)	1.4	3.6%	.	2.7	4.5
COc1cc(OC)c(N(C)C(=O)c2cn(C)c(=O)c3cc(OC)c(OC)cc23)cc1Cl	-5.0	.	.	3.5	.
O=C(Nc1ccccc1)c1nn(-c2ccccc2)c(=O)cc1C(F)(F)F	4.5	5.9%	-39.7	-1.2	-0.7
C=CCn1c(COc2ccc(Cl)cc2)nnc1SCC(=O)NCC(=O)OCC	3.8	-3.2%	-15.6	0.4	2.1
CC1CCCCC1NC(=O)CCS(=O)(=O)c1ccc2c(c1)NC(=O)CS2 (stereo not drawn)	3.8	.	.	-4.4	.
CCOc1ccc(CCNC(=O)C2CCCN(S(C)(=O)=O)C2)cc1OCC (stereo not drawn)	1.7	.	.	-1.0	.
CC(C)CC1NC(C(=O)O)Cc2c1[nH]c1ccccc21 (stereo not drawn)	-0.1	.	.	-6.1	.
CN(C)c1ccc(C(=O)OCc2ccc(Br)cc2)cc1	1.2	-3.8%	-19.5	11.5	-1.5
COC(=O)c1ccccc1NC(=O)NCc1ccccn1	-2.9	-5.9%	-15.5	-1.5	4.2
CCCC(=O)N1CCN(c2ccc(NC(=O)c3ccc([N+](=O)[O-])o3)cc2Cl)CC1	.	<0.195µM*	.	-1.1	-31.6
CCOC(=O)c1cccc(NC(=O)CCS(=O)(=O)c2cccc3nsnc23)c1	3.2	.	-8.8	-4.8	4.6	Arbovirus anti repeat=0.8
O=S(CC(O)COCc1ccc(Cl)cc1)c1ccccn1 (stereo not drawn)	-6.0	-5.0%	20.5	3.6	0.6
O=C(NC1CCN(Cc2ccccc2)CC1)C1CCN(S(=O)(=O)c2cccc([N+](=O)[O-])c2)CC1	-3.0	.	.	-3.2	.
CCOC(=O)CCc1c(C)nc(-n2[nH]c(C)c(CCO)c2=O)[nH]c1=O	3.9	6.9%	.	3.4	-2.9
COc1ccccc1CNC(=O)CCS(=O)(=O)c1cccc2nonc12	14.4	-7.2%	-1.1	0.9	2.4
CCOC(=O)N1CCN(C(=O)CSc2nc3c(c(=O)n2-c2ccccc2OC)SCC3)CC1	-10.6	11.5%	-33.8	-4.0	2.8
CC(C)(C)NC(=O)c1ccc(NC(=O)C2COc3ccccc3O2)cc1 (stereo not drawn)	?	0.1%	-28.5	-1.3	0.1	Arbovirus anti repeat=6.0
O=C(NCc1ccco1)c1cccc(-c2nnc(-c3ccccc3)o2)c1	22.2	-6.0%	0.7	2.5	-32.2
CN(C)c1ccc(C(O)Cc2nc3ccccc3n2C)cc1 (stereo not drawn)	1.8	.	.	-6.4	.
COc1ccccc1CCNC(=O)C1(C)CC1(Cl)Cl (stereo not drawn)	3.3	.	.	-3.1	.
O=C(Nc1ccnc(=O)[nH]1)c1sc2ccccc2c1Cl	2.1	-15.4%	.	-4.5	.
CCOC(=O)c1c(C)[nH]c(C(=O)N/N=C\c2ccccc2O)c1C	2.7	2.8%	-17.1	-1.0	-34.7
COc1ccc(NC(=O)CC2COc3ccccc3O2)c(OC)c1 (stereo not drawn)	-0.2	11.1%	13.1	-0.2	-0.2
CCCCNC(=S)NNC(=O)c1csc(C)c1CC	0.1	-3.4%	-27.7	-3.0	1.3
S=C(Nc1ccc(Nc2ccccc2)cc1)Nc1ccccn1	-5.9	36.0%	.	0.6	-0.5
COc1cc(CNCCO)ccc1OC1CCCC1	-7.3	-0.1%	7.2	0.1	2.4
Cc1ccc(-n2nnnc2CCl)cc1	.	72.1%	.	46.2*	-4.9
NCCCC[C@H](N[C@@H](CCc1ccccc1)C(=O)O)C(=O)N1CCC[C@H]1C(=O)O	-2.2&-0.1	.	.	0.7	.
COC(=O)C(NNc1ccccc1)(NC(=O)c1ccccc1F)C(F)(F)F (stereo not drawn)	-2.7	-16.8%	-14.9	-3.5	-3.0
O=C(Nc1nnc(Cc2ccccc2F)s1)c1ccccc1Cl	-0.9	.	.	3.5	.
CCOC(=O)C1C(=O)CC(C)(O)C(C(=O)OCC)C1c1cccs1 (stereo not drawn)	-1.7	0.4%	-38.9	-2.8	2.3	Arbovirus anti repeat=1.1
COc1ccc(OC)c(CC(=O)Nc2ccc3c(c2)CCC3)c1	-11.0	.	.	2.4	.
CN(C)/C=C1\SC(=S)N(c2ccc(Br)cc2)C1=O	17.0	-0.8%	.	5.7	.
O=C(c1cc(S(=O)(=O)N2CCOCC2)ccc1Cl)N1CCN(c2ccccn2)CC1	2.9	-1.3%	.	0.6	3.7

Three structures already listed, sorted by formula weight, smallest number first:
SMILES	Mtb bLac sens	Mtb H37Rv	YopH PTP inh	RecA splice inh	Arbovirus anti	others
S=C(Nc1ccc(Nc2ccccc2)cc1)Nc1ccccn1	-5.9	36.0%	.	0.6	-0.5
CCOC(=O)C1C(=O)CC(C)(O)C(C(=O)OCC)C1c1cccs1 (stereo not drawn)	-1.7	0.4%	-38.9	-2.8	2.3	Arbovirus anti repeat=1.1
NCCCC[C@H](N[C@@H](CCc1ccccc1)C(=O)O)C(=O)N1CCC[C@H]1C(=O)O	-2.2&-0.1	.	.	0.7	.

(more compounds)
SMILES	Mtb bLac sens	Mtb H37Rv	YopH PTP inh	RecA splice inh	Arbovirus anti	others
Cc1csc(NC(=O)CSc2nnc(NC(=O)COc3ccc(Cl)cc3)s2)n1	4.9	5.1%	-8.1	4.7	-0.4
COc1ccc2[nH]c(=O)c(C(c3nnnn3C(C)(C)C)N(Cc3ccco3)CC3CCCO3)cc2c1 (stereo not drawn)	5.2	2.4%	-9.0	-0.6	-1.7
CCN(CC)CCNC(=O)C1(O)c2cc(Br)ccc2NC(=O)N1c1ccc(Cl)cc1 (stereo not drawn)	-6.2	.	.	-1.1	.
O=C(CCCOc1ccccc1)Nc1ccccc1C(F)(F)F	2.8	7.2%	-34.1	0.1	1.1
Cc1cc(C)cc(-n2nnn(C3C/C(=N/NC(N)=S)C4OCC3O4)c2=S)c1 (stereo not drawn)	-6.7	-18.9%	.	5.7	-0.8
CC(=O)Nc1ccc(SCC(=O)c2cc(C)n(Cc3cccs3)c2C)cc1	-2.5	.	-19.5	0.4	-9.7
O=C(NCCCN=C1NS(=O)(=O)c2ccccc21)c1ccccc1Cl	-15.6	.	.	3.9	.
Cc1cccc(C)c1NC(=O)C(C)N1CCCCC1 (stereo not drawn)	4.9	-7.9%	.	0.0	.
Cc1sc(NC(=O)c2ccco2)c(C(c2cccnc2)N2CCN(CCO)CC2)c1C (stereo not drawn)	8.6	4.9%	.	-2.2	-1.7
CC(=O)Nc1ccc(N2C(=O)C3C4C=CC(CC4)C3C2=O)cc1 (stereo not drawn)	2.2	.	.	-1.4	.
O=C(/C=C/c1cc[n+](CC(=O)c2ccc3cccc4c3c2CC4)cc1)c1ccc2cccc3c2c1CC3	4.1	30.7%	.	5.5	.
c1ccc(-c2ccc(Oc3cc(N4CCOCC4)nc(-c4ccccc4)n3)cc2)cc1	1.7	2.0%	-48.3	-1.4	2.8
CN(C)C(/C=C/Nc1ccc(C#N)cc1)=C(C#N)C#N	1.9	3.1%	2.1	-1.9	4.8
O=C(Cn1c(SCc2ccccc2)nc2ccccc21)N1CCOCC1	?	-13.3%	-6.8	1.5	1.3
COc1ccc(-c2nc(NC(=O)C3CC(=O)N(c4ccc5c(c4)OCCO5)C3)sc2C)cc1 (stereo not drawn)	85.3	25.2%	-22.5	8.3	-2.7
COc1ccc(CCNCc2ccc(OC)c(OC)c2OC)cc1	-0.8	-1.9%	-10.0	-0.1	8.6
COC(=O)c1cc2ccsc2n1CC(=O)N(C)C1CCCCC1	5.7	.	-13.0	2.1	5.1
COc1ccccc1NS(=O)(=O)c1cc([N+](=O)[O-])ccc1N/N=C/c1c(C)[nH]c2ccccc12	4.1	10.7%	-13.8	-2.7	-9.4
CCN1CCN(C(=O)c2ccc3c(=O)n(CCc4ccccc4)c(=O)[nH]c3c2)CC1	-4.9	.	.	1.4	.
O=C(O)CN1C(=O)S/C(=C\c2cccnc2)C1=O	4.6	1.5%	.	-0.6	.
O=C(NCCN1CCN(c2ccccc2)CC1)c1cccn2c(=O)c3cc(Cl)ccc3nc12	.	8.3%	-9.4	2.9	10.9
CN(Cc1ccc(Cl)cc1Cl)C(=O)CNC(=O)c1ccc2c(c1)OCO2	-7.1	.	.	-5.1	.
CN(C)S(=O)(=O)c1ccc(-c2csc(N/N=C/c3ccc(O)cc3)n2)cc1	1.7	37.0%	.	1.4	.
Cc1ccc(S(=O)(=O)N2CCOC2CNC(=O)C(=O)NCc2cccnc2)cc1 (stereo not drawn)	-4.1	-0.6%	-39.9	1.0	4.6
CC(C)COC(=O)C1C2C=CC3(CN(C(C)c4ccc(Br)cc4)C(=O)C13)O2 (stereo not drawn)	-3.2	1.0%	-8.2	5.0	8.8	Arbovirus anti repeat=1.5
COc1ccc(N2Cc3ccccc3C2=O)cc1	-0.1	.	.	-0.8	.
N#Cc1ccc(C(=O)Nc2cccc3cccnc23)c(F)c1	-10.5	3.0%	.	0.0	-11.0
O=C(C1CCN(S(=O)(=O)c2cccc3cccnc23)CC1)N1CCCCC1	-7.5	.	.	-3.1	.
COc1cccc(-c2cc(C(=O)Nc3cccnc3)no2)c1	1.7	3.9%	-29.7	3.7	-9.9
Cn1cc(C(=O)N2CCc3ccccc32)cn1	4.1	-1.7%	-22.2	0.7	0.7
O=C(CSc1nccn1-c1ncc(C(F)(F)F)cc1Cl)c1ccc(Br)cc1	-2.5	-4.3%	-38.1	-9.3	0.5

The list is partial, so the mix of outcomes need not match the whole.
